HPGD inh: qHTS Assay for Inhibitors of HPGD (15-Hydroxyprostaglandin Dehydrogenase) | 15-hydroxyprostaglandin dehydrogenase [NAD(+)] (Homo sapiens), P15428 | purified HPGD, NADH fluorescence kinetic, PGE2 substrate | Potency, µM, for the others: at the top dose activity change, negative = inhibition, actives largely listed as inhibitors | 4.3% of 150,000 active | AID 894, 2007; active = well fitted inhibition curve with a large enough effect (not every such curve was filed as active); inconclusive = small, poorly fitted or top-dose-only effect, or another doubt; inactive = no such curve, though single readings can be large or run the other way;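 also: top concentration of the series not given in the record; plate controls included wells without enzyme; inactives centre near -10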
Target sequence (P15428 whole entry, looked up): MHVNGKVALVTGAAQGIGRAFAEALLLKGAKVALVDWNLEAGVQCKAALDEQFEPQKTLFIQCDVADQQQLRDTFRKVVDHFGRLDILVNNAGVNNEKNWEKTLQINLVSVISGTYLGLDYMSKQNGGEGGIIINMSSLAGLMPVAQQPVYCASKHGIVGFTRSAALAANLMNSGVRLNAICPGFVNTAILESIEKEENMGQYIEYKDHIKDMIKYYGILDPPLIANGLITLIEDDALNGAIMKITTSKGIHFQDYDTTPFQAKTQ
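20 nM HPGD preincubated 15 min at room temperature with compound in 50 mM Tris-HCl pH 8, 0.01% Tween 20. Started with 1 mM NAD+ and 30 uM prostaglandin E2; NADH fluorescence (360/450 nm) read 5 times over 30-s intervals, last minus first.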
An asterisk follows results filed as active; ? = inconclusive; & = joins results of further samples. % is scaled to controls: 0 for no effect and ±100 for the full control effect; potency is read from the fitted curve at half-maximal effect. These rows are one share of the data; rates above refer to the full screens.

Compound	HPGD inh
Nc1ccc(S(=O)(=O)Nc2ccnn2-c2ccccc2)cc1	-4.5%&-9.4%&-5.0%
Cc1nn(CCC(=O)NNC(=S)Nc2ccc(F)cc2)c(C)c1[N+](=O)[O-]	-19.7%
COC(=O)c1cccc(C23CC4(C2)[C@H](CN(Cc2ccc(C(F)(F)F)cc2)[C@@H]4c2ccccc2)C3c2ccc(C(F)(F)F)cc2)c1 (stereo partly drawn)	-6.7%
CCN(CC)S(=O)(=O)c1ccc(C(=O)NCC(c2cccs2)N2CCOCC2)cc1 (stereo not drawn)	-11.9%
Cc1nc2cc(-c3cccc(Cl)c3)nn2c(N2CCN(C(=O)c3ccco3)CC2)c1C	-22.4%
O=C(NCc1ccc2c(c1)OCO2)c1cc2ncc(Br)cn2n1	-17.3%
CCOC(=O)c1[nH]c(C)c(CN(CCc2ccccc2)C(=O)CCC(=O)O)c1C	-1.2%
CCN1/C(=C2\SC(=S)N(Cc3ccccc3)C2=O)Sc2ccccc21	-14.7%
CCOc1ccc(C(=O)NC(=S)Nc2ccccc2OC)cc1[N+](=O)[O-]	-9.2%
Cc1nc(N2CCOCC2)c2nc(-c3ccccc3)n(CCN(C)C)c2n1	?
COC(=O)c1sc2ccccc2c1-n1cccc1C(=O)C(=O)Nc1ccc(OC)cc1	-21.9%
CCOC(=O)c1c(C)[nH]c(C(=O)OCC(=O)NC2CCS(=O)(=O)C2)c1C (stereo not drawn)	-5.0%
CC1CC(C)(C)NC(=S)N1CCCC(=O)N1CCN(c2ccccc2F)CC1 (stereo not drawn)	-2.7%
Cc1oc(-c2ccccc2F)nc1CS(=O)(=O)CC(=O)N1CCN(Cc2ccccc2)CC1	-3.4%
CCNC(=S)N1CCN(c2ccc([N+](=O)[O-])cc2)CC1	-9.9%
Cc1noc(C)c1-c1ccc2ncnc(NCc3ccccc3)c2c1	?
Cc1ccc(S(=O)(=O)N/N=C/c2cccc3c2OCCO3)cc1	-15.3%
O=C(ON=C1CCN(S(=O)(=O)c2ccccc2)CC1)c1ccc(Cl)cc1	-13.1%
COc1ccc(-c2nnc(SCc3cccc(C#N)c3)o2)cc1	-22.8%
Cn1c(=O)c2c(nc(NCCO)n2C)n(C)c1=O	1.6%
CN1CCN(c2ccc(NC(=O)c3ccc4c(c3)OCO4)cc2)CC1	-5.7%
CCc1nnc(NC(=O)CSc2nc3c(cc2C#N)CCCC3)s1	-1.4%
CCc1c(C)nc(SCCOc2ccc(OC)cc2)[nH]c1=O	-12.2%
Fc1ccc(-c2nnc(-c3ccc(Cl)cc3Cl)o2)cc1	-15.9%
CC(=O)c1cnn(-c2cc(Oc3ccccc3C)ncn2)c1C	-14.7%
COc1ccc(Cn2c(C)c(C)c(C#N)c2NC(=O)Nc2ccccc2)cc1	-2.6%
COCCn1c(=S)[nH]c2cc(C(=O)NCC3CCCO3)ccc2c1=O (stereo not drawn)	-9.2%
CCC(C)C(NC(=O)c1ccccc1NC(=O)c1ccco1)C(=O)NC1CCCCC1 (stereo not drawn)	-18.2%
NS(=O)(=O)c1ccc(CNC(=O)CCC2CCCCC2)cc1	-0.7%
C=CCn1c(Cc2ccc(OC)cc2)nnc1SCc1nc2ccccc2c(=O)[nH]1	-7.2%
CC(=O)Nc1sc2c(c1C(N)=O)CCC2	-23.2%
COCCNC(=O)c1cn(C)c2ccc(S(=O)(=O)N(C)C3CCCCC3)cc2c1=O	-5.8%
Cc1cccc(Nc2nnc(SCC(=O)NC3CCCc4ccccc43)s2)c1 (stereo not drawn)	-9.4%
COc1ccc(OC)c(S(=O)(=O)n2nc(-c3ccccc3)cc2N)c1	-3.1%
CCOc1ccc(OCCSc2nc3ccccc3[nH]2)cc1	25.1µM*
CN1CCN(c2nc(-c3ccc(N(C)C)cc3)nc3ccccc23)CC1	?
O=[N+]([O-])c1ccc(N2CCN(c3nc(-c4ccc(Cl)cc4)cs3)CC2)cc1	-5.7%
CCOC(=O)c1ccccc1NC(=O)c1ccc2c(=O)n3c(nc2c1)CCCCC3	-19.8%
Cn1c(=O)c2c(ncn2CC(=O)N/N=C/c2ccc(Br)s2)n(C)c1=O	-8.4%
COCC(=O)c1[nH]c2ccccc2c1C	-12.7%
CCOc1ccc(C(=O)NCC(=O)OCC(=O)Nc2ccccc2OC)cc1	-9.8%
CCOC(=O)c1c(COc2ccccc2)oc2ccc(O)cc12	-2.9%
COc1ccc(Cc2nc(C(=O)Nc3ccc(F)cc3)cs2)cc1	-17.2%
CC(=O)CC(C)(C)S(=O)(=O)c1ccc(NC(C)=O)cc1	6.0%
COc1ccc(C2C3CCCCC3(O)CCN2C(=O)c2cccs2)cc1 (stereo not drawn)	-0.2%
Cc1cc(OCC(=O)Nc2ccncc2)cc(C)c1Br	-15.4%
Cc1sc(N)c(C(=O)c2cccc(C(F)(F)F)c2)c1C	-22.1%
CCc1cccc(CC)c1N1C(=O)c2cc(N3CCOCC3)c([N+](=O)[O-])cc2C1=O	-11.7%
Oc1ccc(Nc2nc(-c3ccc(Cl)cc3)cs2)cc1	-20.1%
Cc1cnc(NC(=O)CSc2ccc(Cl)cc2)s1	-29.6%

Further structures follow.
Compound	HPGD inh
Cc1ccccc1Nc1nc(N)nc(CN(C)Cc2ccccc2Cl)n1	-12.3%
CC1C/C(=C/c2cccs2)C(=O)/C(=C/c2cccs2)C1 (stereo not drawn)	-12.1%
CC(=O)N1CCN(c2ccccc2NC(=O)COc2ccc(Br)cc2)CC1	-8.7%
CC(=O)c1cnc(N(C)C)s1	-24.4%
CC(C)(C)NC(=O)CSc1nncn1-c1ccccc1	-6.2%
COc1ccccc1NS(=O)(=O)c1cc(NC(=O)c2cccs2)ccc1N1CCCC1	8.91µM*
COc1ccc(NC(=O)Cn2c(=O)sc3ccccc32)c(OC)c1	-18.6%
COc1ccccc1/C=C/C=N/n1c(-c2cc(C)[nH]n2)n[nH]c1=S	14.1µM*
C=CCOc1c(OC)cc(/C=N/Nc2cccc(C(=O)O)c2)c(Br)c1Br	?
COc1ccc(CNC(=O)C2CCN(C(=O)[C@@H](CC(C)C)NC(=O)OC(C)(C)C)CC2)cc1	-4.4%
CCCCn1c(=O)c(CC(C)=O)nc2ccccc21	-10.0%
CN(C)c1ccc(C=Nc2ccc(N(C)C)cc2)cc1	-27.2%
CCSc1nnc(NC(=O)C2CCCCC2)s1	-5.1%
CCn1cc(C2C(C(=O)Nc3ccc(Br)cn3)=C(C)NC3=C2C(=O)CCC3)c(C)n1 (stereo not drawn)	?
S=C(NCc1ccccn1)Nc1ccc(Cl)cc1Cl	-29.8%
COc1ccc(CNc2nc3nc4c(c(=O)n3[nH]2)CCC4)cc1	1.3%
CCN1CCN(c2nc(-c3ccccc3)nc3ccccc23)CC1	-2.7%
COc1ccc(CNc2nc(S(=O)(=O)c3ccccc3)c(Cl)s2)cc1OC	-5.9%
COC(=O)[C@H]1C[C@@H]1[C@H](NC(=O)Oc1ccc(F)cc1)c1ccccc1	-5.3%
O=C(O)c1cncc(C(=O)O)c1	-3.8%
Fc1ccc(C2CC(c3ccco3)n3ncnc3N2)cc1 (stereo not drawn)	-8.7%
COc1ccc(NC(=S)N2CCOCC2)c(OC)c1	-0.2%
CCOC(=O)c1ccccc1-n1c(C)cc(C2N=C(N)Nc3nc4ccccc4n32)c1C (stereo not drawn)	-15.5%
COCCn1c(=O)c(-c2cccs2)nc2cnc(Nc3ccccc3)nc21	-2.7%
O=C(NCc1cccs1)c1cc(-c2ccccc2)on1	-3.6%
CNc1ccc(Br)cc(C(=O)/C=C/c2ccc3c(c2)OCO3)c1=O	15.8µM*
CSc1ncccc1C(=O)OCc1ccc(COC(=O)c2cccnc2SC)cc1	-9.1%
Cc1ccc(NC(=O)c2cccs2)cc1	-10.6%
CCC/C=C(\CCC)C(NP(=O)(c1ccccc1)c1ccccc1)c1ccc(-c2ccccc2)cc1 (stereo not drawn)	-18.0%
CNC(=O)c1c(N)sc2c1CCCCC2	31.6µM*
CCCCOc1ccccc1NC(=O)C=C(C)C	-4.8%
COc1cccc(N(CC(=O)Nc2cccc(C(C)=O)c2)S(C)(=O)=O)c1	-13.1%
COC(=O)c1sc(NC(=O)CC(C)C)c(C(=O)OC)c1C	-21.5%
Cc1ccccc1OCC(O)Cn1c(NCc2ccccc2)nc2c1c(=O)[nH]c(=O)n2C (stereo not drawn)	-0.8%
Cc1no[n+]([O-])c1COc1ccccc1/C=N/n1nnnc1N	-8.7%
CC[C@H](CO)NCCN[C@@H](CC)CO	-2.7%
CN1CCc2nc(SCC(=O)Nc3ccc(OC(F)(F)F)cc3)c(C#N)c(-c3cccs3)c2C1	-23.8%
O=C(CCC(=O)c1ccc[nH]1)c1ccc(Cl)cc1	-21.1%
COc1cc(NC(=S)NCCSc2ccc(C)cc2)cc(OC)c1	-13.8%
Cc1cc(C)cc(C(=O)NCC(=O)OCc2c(C)noc2C)c1	-3.8%
COC(=O)/C(C#N)=C/c1c(Oc2cc(C)cc(C)c2)nc2c(C)cccn2c1=O	-8.8%
CCCCCOc1ccc(CSC(=N)N)cc1[N+](=O)[O-]	1.1%
CCOC(=O)C(C)Sc1nnc(-c2ccccc2O)n1Cc1ccccc1 (stereo not drawn)	-18.5%
CCc1c(C)c2cc(Cl)c(O)c(CN3CCCCC3)c2oc1=O	?
O=C(CC1CCS(=O)(=O)C1)NC1CCCCC1 (stereo not drawn)	-5.1%
Cc1cc2cc(CNC(=O)c3ccc4c(c3)OCO4)ccc2[nH]1	20µM*
COc1ccc(NS(=O)(=O)c2ccc(NC(=O)CCNS(=O)(=O)c3ccc(C)cc3)cc2)cc1	-21.1%
O=c1cc(CN2CCN(CCO)CC2)c2cc3c(cc2o1)CCC3	-5.8%
Clc1ccc(OCCn2ccnc2)c(Cl)c1	-8.7%
COc1ccc(CN2CCn3ncc(C(=O)Nc4cccc(C)c4)c3C2=O)cc1	-17.6%

Of the compounds above, three have a COOH group:
Compound	HPGD inh
CCOC(=O)c1[nH]c(C)c(CN(CCc2ccccc2)C(=O)CCC(=O)O)c1C	-1.2%
C=CCOc1c(OC)cc(/C=N/Nc2cccc(C(=O)O)c2)c(Br)c1Br	?
O=C(O)c1cncc(C(=O)O)c1	-3.8%

Remaining list, next part
Compound	HPGD inh
CCOc1ccc(C(C)(C)C)cc1S(=O)(=O)n1nc(C)cc1C	-1.7%
Cc1cnc(C(=O)Nc2ccc(F)cc2)cn1	-22.6%
CCN1CCN(C(=S)Nc2cccc(C(F)(F)F)c2)CC1	-8.1%
COC(=O)C(Cc1ccc(OC(=O)c2ccc(C)cc2)cc1)N1Cc2ccccc2C1=O (stereo not drawn)	-11.4%
C/C(=N\NC(=O)CN1CCN(Cc2ccc(C)cc2)CC1)c1ccncc1	-0.8%
CC(C)(C)NCC(O)COc1cccc2[nH]c(=O)[nH]c12 (stereo not drawn)	-8.1%
Oc1cccc(/C=N/c2c(-c3ccco3)nc3ccccn23)c1	?
COC(=O)c1coc(-c2ccc(OC)cc2)c1C(=O)OC	?
CN1CCC(N(C)C(=S)NC(=O)C23CC4CC(CC(C4)C2)C3)CC1	-2.0%
CC1(C)C2CCC13CS(=O)(=O)N[C@@H]3C2 (stereo partly drawn)	-4.0%
c1ccc(Cn2nnc3c(NCCN4CCOCC4)ncnc32)cc1	-25.5%
Cc1nc(S(=O)(=O)c2ccc(Cl)cc2Cl)nc2c1CCC2	-11.6%
Cc1oc2ccc(NS(=O)(=O)c3ccccc3)cc2c1C(=O)Nc1ccccc1	-21.9%
Cc1cccc(OCc2nnc(N)s2)c1C	-4.3%
Cc1ccc(S(=O)(=O)N2CCCC(C(=O)NC3=NCCS3)C2)cc1 (stereo not drawn)	2.2%
O=S(=O)(c1cccc2cccnc12)N(CCO)CCO	-11.5%
COc1ccc(Nc2nc(N)nc(CSc3nccc(C)n3)n2)cc1	-0.3%
COc1ccc([N+](=O)[O-])cc1NC(=O)C(C)c1ccccc1 (stereo not drawn)	-8.1%
CCCOC(=O)c1ccc(NC(=O)c2cc(OC)c(OC)c(OC)c2Br)cc1	-14.4%
COc1ccc(NC(=O)CN2C(=O)c3cccc4cccc2c34)c(OC)c1	-15.9%
COc1cc(C(=O)N2CCN(C(=O)c3ccco3)CC2)cc(OC)c1OC	-3.7%
CCCCOC(=O)c1ccc(NS(=O)(=O)c2cc(-c3nnnn3CC)ccc2OC)cc1	-13.3%
O=C(CN1C(=O)CSC1=O)N1CCc2ccccc2C1	-15.0%
O=C(Nc1ccc(S(=O)(=O)N2CCCCC2)cc1)c1cnccn1	-13.9%
Cc1nc2nc(-c3ccc(Cl)cc3)[nH]n2c(=O)c1Cc1ccccc1	-22.1%
CCn1c(SCC(=O)NCc2ccco2)nc2c1c(=O)n(C)c(=O)n2C	5.6%
CCC1(C)Cc2c(sc3nc(SC)nc(NCCN(C)C)c23)CO1 (stereo not drawn)	-9.2%
COc1ccccc1CN1CCN(S(=O)(=O)c2ccccc2)CC1	-10.0%
Nc1nonc1OCCc1ccccc1	-4.2%

Assay outcomes (PubChem BioAssay)
